Compound activity from PubChem.
WNV NS2B-NS3 inh – WNV NS2B-NS3 proteinase inhibition | 65,000 compounds, 0.18% hits | z-score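 (tested at a level between 10 and 100 µM)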 | WNV NS2B-NS3 protease, fluorogenic substrate Ex360/Em465; active compounds read low | P06935 | AID 577;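 active = z-score at -3 or under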;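 also: score is relative to mean and spread of the compound wells of a plate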
Target sequence (P06935 1371-1501 limits assumed): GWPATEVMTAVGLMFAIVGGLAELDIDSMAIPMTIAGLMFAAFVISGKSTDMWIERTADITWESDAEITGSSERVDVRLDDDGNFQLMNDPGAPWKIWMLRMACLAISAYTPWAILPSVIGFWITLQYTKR
Target sequence (P06935 1502-1679 limits assumed): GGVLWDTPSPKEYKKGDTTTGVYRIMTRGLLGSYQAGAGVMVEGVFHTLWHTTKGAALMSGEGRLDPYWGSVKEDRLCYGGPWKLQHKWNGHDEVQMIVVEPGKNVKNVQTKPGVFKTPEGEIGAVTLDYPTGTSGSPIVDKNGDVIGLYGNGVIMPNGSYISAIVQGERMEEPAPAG
MT1-MMP promoter – MT1-MMP gene expression reporter suppression – cell-based, luciferase reporter, luminescence (AID 618); MT1-MMP promoter luciferase reporter cells, luminescence; calls from a first round at 10 µM; hits with a dose series show EC50 in µM; 87,000 compounds, 0.62% hits;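 active = over half of the reporter light lost at 10 µM or EC50 under 50 µM; inactive = the rest and hits that failed the dose series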;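 also: actives suppress MT1-MMP promoter-driven transcription so potencies describe inhibitors; HT1080 fibrosarcoma cells; overnight exposure; toxic or luciferase-blocking compounds were not removed from the actives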
Hsc70 ATP site – small molecules displacing fluorescent ligand from Hsc70 – biochemical, fluorescence polarization, primary screen (AID 568); one-dose displacement, % at 20 µM; IC50 in µM for titrated hits; 83,000 tested, under 10 active; Hsc70 fluorescence polarization, probe displacement; higher % means a stronger effect; strong numbers were not always called active;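 active = displacement above 50% without optical interference and an IC50 on retest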;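 also: ATPase domain with a fluorescein-tagged ATP probe; 0% = vehicle and 100% = excess ADP; read after one hour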
* hit, by the source's call; i = inactive; x = not tested or not shown. Not all compounds are listed; count on the stated rates, not on these rows.

Below each compound – WNV NS2B-NS3 inh	MT1-MMP promoter	Hsc70 ATP site
1. Cc1ccc(S(=O)(=O)Cc2ccc(C(=O)O)o2)cc1
→ x	i	8.1%
2. CC(C)C(=O)Nc1cccc2nsnc12
→ 0.75	i	-0.5%
3. CCOC(=O)c1c(C)[nH]c(C(=O)Cn2c(=O)c3c(ncn3CC)n(Cc3ccccc3)c2=O)c1C
→ 0.2	i	-10.0%
4. COC(=O)Cn1c(=NC(=O)C2CC2)sc2c(C)cc(C)cc21
→ -1.02	i	2.6%
5. CCOC(=O)N1CCC(N(C(=O)Nc2ccc(Cl)c(Cl)c2)C(C)CC)CC1 (stereo unspecified)
→ 0.19	i	-2.7%
6. C=CCC(Nc1ccco1)c1ccccc1 (stereo unspecified)
→ -0.11	i	-0.1%
7. CCn1c(CCNC(=O)c2ccc(OC)c(OC)c2)nc2ccccc21
→ -0.39	i	8.5%
8. Cc1ccc(C2=NN(S(C)(=O)=O)C(c3cccs3)C2)cc1 (stereo unspecified)
→ x	i	-0.3%
9. COc1nnc(-c2ccc(N3CCOCC3)c(NC(C)=O)c2)c2ccccc12
→ -1.15	i	-2.8%
10. CC1CCN(S(=O)(=O)c2cccc(C(=O)Nc3nccs3)c2)CC1
→ -0.93	i	-1.8%
11. COc1ccc(S(=O)(=O)N(C)CC(=O)N2CCC(C)CC2)cc1Cl
→ 0.68	i	-0.3%
12. CC(C)C(NC(=O)c1ccccc1)c1nnc(SCC(=O)Nc2nccs2)n1C (stereo unspecified)
→ x	i	-4.2%
13. CC1CCC(C(C)C)C2=C1C(C#N)(C#N)C(C#N)(C#N)C(c1ccccc1)N2 (stereo unspecified)
→ x	i	1.5%
14. O=C(NCCc1ccccc1Cl)C1CCN(S(=O)(=O)c2cccs2)CC1
→ x	i	-1.3%
15. Cn1c(=NC(=O)C2CC2)sc2cc(F)cc(F)c21
→ 0.75	i	3.5%
16. Cc1oc(-c2ccccc2F)nc1CS(=O)(=O)CC(=O)N1CCc2ccccc21
→ 1.04	i	4.9%
17. O=C(O)C1C(c2ccccc2)C(C(=O)Oc2ccccc2)C1c1ccccc1 (stereo unspecified)
→ x	i	2.2%
18. Cc1cc(C)n(-c2nc3c(c(=O)n(C)c(=O)n3C)n2C)n1
→ 0.46	i	-12.6%
19. COc1ccccc1NC(=O)CSc1nnc(-c2ccc(C)cc2)o1
→ -0.02	i	-5.3%
20. CC1CCN(C(=O)CSc2ccc3nnc(-c4ccccc4)n3n2)CC1
→ -0.2	i	-6.6%
21. CC(=O)NC(=S)c1c(N)n(Cc2ccccc2)c(=O)n(C)c1=O
→ 1.68	i	-21.2%
22. COc1ccc(S(=O)(=O)N2CCC(C(=O)NCc3ccccn3)CC2)cc1OC
→ x	i	1.9%
23. Cn1c(=O)[nH]c(=O)c2c1nc(Br)n2CC(O)COCc1ccccc1 (stereo unspecified)
→ 0.76	i	-1.0%
24. CCC(=O)Oc1ccc(C2N(C(=O)CC)CCN2S(=O)(=O)c2ccc(C)cc2)cc1OC (stereo unspecified)
→ -0.47	i	1.0%
25. CCC(=O)c1cc(F)c(N2CCN(C(=O)c3ccco3)CC2)cc1C
→ 0.21	i	0.1%
26. CCOC(=O)c1ccoc1CSCC(=O)N1CCN(S(=O)(=O)c2ccc(C)cc2)CC1
→ 0.21	i	7.8%
27. CC(=O)Oc1ccc(-c2nc(-c3cccnc3)no2)cc1
→ -0.59	i	1.4%
28. COCCN1C(=O)c2oc3ccccc3c(=O)c2C1c1ccc(C(=O)OC)cc1 (stereo unspecified)
→ 0.37	i	4.1%
29. COc1ccc(OC)c(C2SCCN2S(=O)(=O)c2cccc(C(F)(F)F)c2)c1 (stereo unspecified)
→ -0.84	i	-7.5%
30. N#Cc1c(NC(=O)CSc2nnc(-c3ccccc3O)n2-c2ccccc2)sc2c1CCCC2
→ 1.25	i	-1.1%
31. COc1ccc(Cc2nnc(SC)[nH]c2=O)cc1
→ x	i	-2.2%
32. Cc1ccc(Cn2c(NCCCn3ccnc3)nc3c2c(=O)n(C)c(=O)n3C)cc1
→ -0.85	i	2.5%
33. O=C(Nc1ccc2c(c1)oc1ccccc12)c1ccc(Br)o1
→ 1.08	i	0.5%
34. O=P(O)(c1ccc(Cl)cc1)c1ccc(Cl)cc1
→ 1.19	i	1.2%
35. CCOc1ccc(C2Sc3ccccc3NC3=C2C(=O)OC3)cc1 (stereo unspecified)
→ x	i	5.6%
36. O=C(CCn1c(=O)[nH]c2ccsc2c1=O)N1CC(=O)N(CCc2ccccc2)C(=O)C1
→ 0.86	i	0.5%
37. Cc1cc(C)cc(N2C(=O)C3CC=CCC3C2=O)c1 (stereo unspecified)
→ -0.17	i	3.1%
38. CCN1CCN(Cc2nc3c(c(=O)n(C)c(=O)n3C)n2Cc2ccc(Cl)cc2Cl)CC1
→ -0.67	i	-1.3%
39. CCOC(=O)c1ccc(-n2nc(C(F)(F)F)c3c(C)cc(=O)oc32)cc1
→ x	i	-6.3%
40. CN1CCc2c(sc3c2c(=O)n(-c2ccccc2)c2nnc(SCc4ccccc4)n32)C1
→ -0.41	i	7.4%
41. O=S(=O)(O/N=C1\CCCc2ccccc21)c1ccc(Cl)cc1
→ x	i	3.5%
42. Cc1c(-c2nn(C)c(=O)c3ccccc23)oc2ccc(F)cc2c1=O
→ 1.49	i	1.4%
43. Oc1c(I)cc(Cl)c2cccnc12
→ 0.74	i	-1.9%
44. Cc1ccccc1OCCCn1c(=O)sc2ccccc21
→ x	i	2.7%
45. CCOC(=O)c1sc(NC(=O)CSc2nnnn2-c2ccccc2)c(C(=O)OCC)c1C
→ 1.09	i	-8.3%
46. CN(CCNS(=O)(=O)c1ccc2c(c1)oc(=O)n2C)Cc1ccccc1
→ 0.19	i	1.1%
47. Cc1ccc(NC(=O)C2CCN(S(C)(=O)=O)CC2)cc1C
→ x	i	-1.9%
48. CCOC(=O)c1cc2sccc2n1CC(=O)Nc1ccc(OC)c(OC)c1
→ 0.46	i	-0.7%
49. CCOc1ccc2cc(C#N)c(SCC(=O)N3CCOCC3)nc2c1
→ 0.49	i	5.5%
50. CCCn1c(SCC(=O)NCc2ccco2)nc2c1c(=O)n(C)c(=O)n2C
→ -0.46	i	-2.6%
51. Cn1nnnc1SCC(=O)Nc1ccccc1C(=O)NCc1ccccc1
→ -1.09	i	0.1%
52. O=C(c1ccco1)N1CCN(c2ccc(S(=O)(=O)N3CCCC3)cc2)CC1
→ -0.81	i	-5.6%
53. Cc1cc(C)n(CC(O)CN2c3ccccc3Sc3ccccc32)n1 (stereo unspecified)
→ -0.32	i	7.7%
54. c1ccc2c(c1)CC1(CCCC1)n1nnnc1-2
→ -0.87	i	-3.2%
55. COc1ccccc1-c1noc(-c2ccncc2)n1
→ 1.34	i	4.1%
56. CC1(C)Cc2cccc(OCC(N)=O)c2O1
→ x	i	1.6%
57. O=C(c1ccccc1)N1CCN(C(=O)N2CCCCC2)CC1
→ 0.52	i	-0.2%
58. Cc1ccc(S(=O)(=O)NCC(=O)OCC(=O)Nc2ncc(Cl)cc2Cl)cc1
→ -1.15	i	-5.9%
59. O=C(/C=C/c1ccc(Br)cc1)NC(=S)NNC(=O)c1ccco1
→ x	i	-0.2%
60. COc1ccc2cnn(-c3ccccc3)c(=O)c2c1OC
→ 0.02	i	-5.1%

New compounds follow.
Below each compound – WNV NS2B-NS3 inh	MT1-MMP promoter	Hsc70 ATP site
61. COC(=O)C1=C(C(=O)c2ccc(C)cc2)C(c2ccccc2)n2nnnc2N1 (stereo unspecified)
→ x	i	-0.7%
62. Cc1ccc2oc(=O)c3cnn(CC(=O)NCCc4ccsc4)c3c2c1
→ -0.55	i	2.0%
63. CCOC(=O)N1CCN(CC(=O)Nc2c(C(=O)OC)[nH]c3cccc(Cl)c23)CC1
→ 0.36	i	-2.7%
64. CN=c1oc2ccc(Cl)cc2cc1C(N)=O
→ -0.81	i	-3.1%
65. COc1ccc2c(c1)c1nnc(SC)nc1n2C
→ -1	i	-0.4%
66. Cc1cc(N=CC2=C(O)CCCC2=O)no1
→ -0.01	i	-0.7%
67. CCOC(=O)N1CCC(N2C(=O)c3ccccc3C2Nc2cccnc2)CC1 (stereo unspecified)
→ -0.89	i	3.0%
68. O=C(Nc1ncc2c(n1)CC(c1ccccc1)CC2=O)c1ccco1 (stereo unspecified)
→ -0.11	i	1.9%
69. CCCC(O)(CCC)C(=O)NNc1ccccc1
→ x	i	3.4%
70. CCc1ccccc1-n1cnc2cc(C(=O)O)ccc21
→ 0.19	i	3.8%
71. C=C1c2cc(CC)ccc2NC(=O)N1c1ccc(C)cc1
→ 1.33	i	0.5%
72. CN(CC(=O)NC(c1ccccc1)c1ccccc1)Cc1nc2ccccc2c(=O)[nH]1
→ x	i	6.4%
73. COc1ccc(S(=O)(=O)n2nc(OC(=O)c3c(-c4ccccc4Cl)noc3C)cc2N)cc1
→ -0.73	i	-3.0%
74. CCCCCn1c(=O)[nH]c2cc(C(=O)NCc3ccc4c(c3)OCO4)ccc2c1=O
→ -0.89	i	-3.5%
75. Cc1cccc(OCCCCCn2ccnc2)c1C
→ -0.46	i	11.8%

Compound profiles, from the list above.
`CCOC(=O)N1CCC(N2C(=O)c3ccccc3C2Nc2cccnc2)CC1` (stereo unspecified) is listed with WNV NS2B-NS3 inh: -0.89; MT1-MMP promoter: i; Hsc70 ATP site: 3.0%
`COc1ccc(S(=O)(=O)n2nc(OC(=O)c3c(-c4ccccc4Cl)noc3C)cc2N)cc1` is listed with WNV NS2B-NS3 inh: -0.73; MT1-MMP promoter: i; Hsc70 ATP site: -3.0%
`Cc1cc(N=CC2=C(O)CCCC2=O)no1` is listed with WNV NS2B-NS3 inh: -0.01; MT1-MMP promoter: i; Hsc70 ATP site: -0.7%

(continued)
Below each compound – WNV NS2B-NS3 inh	MT1-MMP promoter	Hsc70 ATP site
76. CN=C1c2cc3cc(OC)ccc3n2CCN1Cc1ccccc1
→ x	i	2.4%
77. CCC(C)NS(=O)(=O)c1ccc(S(=O)(=O)N(CC(=O)Nc2ccccc2)Cc2ccco2)cc1 (stereo unspecified)
→ x	i	1.6%
78. CC(C)c1nnc(NC(=O)CCC(=O)NCc2cccs2)s1
→ x	i	-4.2%
79. CS(=O)(=O)N(CC(=O)NCc1ccncc1)c1ccc(Cl)c(Cl)c1
→ x	i	0.2%
80. CCc1nc2c(oc3ccccc32)c(=O)[nH]1
→ x	i	1.6%
81. COC(=O)C1=C(C)Nc2nnnn2C1c1cccs1 (stereo unspecified)
→ 0.15	i	-3.2%
82. COC(=O)c1[nH]c2cc(C)ccc2c1NC(=O)CN1CCCc2ccccc21
→ 0.16	i	-2.0%
83. COc1ccccc1Nc1nnc(SCC(=O)N2CCCC2)s1
→ 2.19	i	7.2%
84. CN(C(=O)c1ccco1)c1nnc(C23CC4CC(CC(C4)C2)C3)s1
→ -0.62	i	-1.2%
85. O=C(c1c(Cl)cccc1Cl)N1CCCCCC1
→ 1.23	i	3.9%
86. CC1(C)CC(=O)C=C(NC2CCCCCC2)C1
→ 0.81	i	-0.8%
87. COc1cccc(CNc2cccc3cccnc23)c1O
→ -0.48	i	-2.6%
88. Cc1cc(C)n(CC(=O)c2ccc(Br)cc2)c(=O)c1C#N
→ x	i	3.6%
89. Cn1c(SCc2ccc(C#N)cc2)nnc1-c1ccccc1
→ 0.00167	i	-7.2%
90. Cc1cc(C)n(-c2nnc(C)n2NS(C)(=O)=O)n1
→ -1.16	i	-6.9%
91. Cc1ccc(CN2C(=O)CCC2C(=O)NCC2CCCO2)cc1 (stereo unspecified)
→ 0.37	i	-2.9%
92. COc1ccccc1N1CCN(C(=O)CCn2c(=O)[nH]c3ccsc3c2=O)CC1
→ -0.27	i	6.1%
93. O=C(c1cccn2c(=O)c3cc(Cl)ccc3nc12)N1CCN(Cc2ccc3c(c2)OCO3)CC1
→ -0.7	i	-1.3%
94. CC1CCN(C(=O)CSc2nnc(-c3ccncc3)n2C)CC1
→ x	i	5.5%
95. C/C(N)=C(/C#N)C(=O)CSc1nnc(Cc2ccccc2F)n1N
→ 0.28	i	-4.4%
96. CCOC(OCC)P(=O)(C(C)C)C(C)C
→ 0.19	i	2.6%
97. CC(C)CNS(=O)(=O)c1ccc(OCC(=O)Nc2ccc(F)cc2F)cc1
→ x	i	1.2%
98. CC(=O)Nc1ccc(S(=O)(=O)NCc2csc(C)n2)cc1
→ -0.11	i	6.9%
99. CCN(CC)CCCn1c(C)cc2c(c1=O)C(c1ccc(OC)c(OC)c1OC)C(C#N)=C(N)O2 (stereo unspecified)
→ -1.17	i	1.9%
100. COc1cccc(NC(=O)CSc2nnc(-c3ccc(C)cc3)o2)c1
→ 0.91	i	0.0%
101. CCOC(=O)CC(=O)CSc1ccc2nnc(-c3ccc(F)cc3)n2n1
→ 0.42	i	-1.0%
102. Cc1cc[n+](-c2nc3ccccc3nc2C(=C=[N-])C#N)cc1
→ x	i	2.5%
103. Cc1nc2ccc(NC(=O)c3ccc(F)c(S(=O)(=O)N4CCOCC4)c3)cc2s1
→ x	i	-2.4%
104. CCC1CCCCN1C(=O)CSc1nnc(-c2cccc(Cl)c2)o1 (stereo unspecified)
→ -1.11	i	-1.2%
105. Cn1c(=O)c2c(nc(N3CCN(Cc4ccccc4)CC3)n2CCCc2ccccc2)n(C)c1=O
→ 0.46	i	-3.9%
106. O=C(COc1ncnc2ccccc12)N1CCN(S(=O)(=O)c2ccc(Cl)cc2)CC1
→ -0.63	i	6.6%
107. O=C(CCn1c(=O)oc2ccccc21)N1CCOCC1
→ 0.51	i	1.5%
108. CCCC(=O)Nc1ccc(NC(=O)c2ccccc2OC)cn1
→ -0.88	i	3.0%
109. CS(=O)(=O)Nc1ccc(Cc2ccc(NS(C)(=O)=O)cc2)cc1
→ -0.2	i	-6.3%
